Screening results deposited in PubChem BioAssay by National Center for Advancing Translational Sciences (NCATS).
Vaccinia mCherry – vaccinia inhibition (mCherry reporter) | Vaccinia virus mCherry reporter infection, fluorescence; about a quarter of the inactives have no number | Potency, µM (series often up to 36.5 µM), for inactives: at the top dose activity change, negative = inhibition, most hits filed as inhibitors | hit rate 0.63% among 310,000; active = well fitted inhibition curve with a large enough effect; inconclusive = small, poorly fitted or top-dose-only effect; inactive = no such curve, though single readings can be large or run the other way; tested in A549 cells; further: nearly all actives have a fitted effect of over 35% in size; inactives centre near -10
VACV Venus inh – inhibitors of vaccinia virus (Venus reporter). AID 720580. hit rate 0.46% among 330,000. Vaccinia virus Venus reporter expression, fluorescence. Potency, µM (titrated, usually from 36.5 µM), for the others: top-dose activity change, negative = inhibition, most hits filed as inhibitors; active means well fitted inhibition curve with a large enough effect; inconclusive means small, poorly fitted or top-dose-only effect; inactive means no such curve, though single readings can be large or run the other way; tested in A549 cells; further: nearly all actives have a fitted effect of over 30% in size; inactives centre near -10
Starred values were filed as active, the others as inactive; i = inactive; ? = inconclusive; . = not tested or not shown; [ ] = remark or other dose. On the % scale 0 is the no-effect control and ±100 the full control effect; potency means the concentration at half of the fitted maximal effect.

molecule,Vaccinia mCherry,VACV Venus inh
Cc1cc(C)cc(Nc2cc(C(=O)NCCCN(Cc3ccccc3)C(C)C)c3ccccc3n2)c1,-29.6%,-22.9%
CC(C)CC(NC(=O)OC(C)(C)C)C(=O)NCc1ccccc1 (stereo not given),-8.6%,-8.4%
O=C(CSc1nnc2scc(-c3ccccc3)n12)NCc1ccco1,i,-10.1%
Cc1ccc(Oc2nc(-c3ccccc3)ncc2S(C)(=O)=O)cc1,.,-6.8%
COc1ccc(S(=O)(=O)Nc2ccc3c(c2)C(=O)N([C@@H](C)CO)C[C@@H](C)[C@H](CN(C)S(=O)(=O)c2ccc(F)cc2)OCCCC[C@H](C)O3)cc1,?,?
O=C(O)COc1ccccc1/C=N/NC(=O)CSc1nnc(SCc2cccc3ccccc23)s1,-21.3%,-3.7%
CC1CCN(C(=O)/C(=C/c2ccccc2Cl)c2ccccc2)CC1,-19.3%,-15.2%
N#Cc1ccccc1Cn1cc(C#N)c2ccccc21,.,-13.4%
CCC(C)N(C(=O)COC(=O)COc1c(C)cc(C)cc1C)C1CCS(=O)(=O)C1 (stereo not given),-8.4%,-7.3%
CCCCCC(=O)N1C[C@H](O)[C@@H](n2cc(C3CC3)nn2)C[C@@H]1c1ccc(Cl)cc1,-9.8%,2.3%
CC(C)=N/N=C(\N)SCc1ccccc1,-10.8%,-13.9%
CCCCCCCCNC(=O)CC(NS(=O)(=O)c1ccc(NC(C)=O)cc1)C(C)C (stereo not given),-27.4%,-23.4%
CC(C)C(NC(=O)CC12CC3CC(CC(C3)C1)C2)C(=O)O (stereo not given),-11.2%,-11.2%
CC1(C)C2CC[C@]3(C)C(CC=C4[C@@H]5C[C@@](C)(CO)[C@@H](O)C[C@]5(C(=O)O)CC[C@]43C)[C@@]2(C)CC[C@@H]1O (stereo not given in full),-12.0%,-5.1%
Cc1oc(-c2ccccc2NC(=O)C2CCC2)nc1CNC(=O)c1ccc(C#CC(C)(C)O)cc1,-12.0%,-9.0%
CCCCCC(=O)NNC1CC(=O)N(c2cccc(OCC)c2)C1=O (stereo not given),-10.6%,-9.9%
COc1ccc(N(Cc2cccs2)C(=O)c2ccc(C(C)(C)C)cc2)cc1,-13.4%,-8.9%
O=C(Cn1c(=O)n(Cc2ccc(C(=O)NCc3ccc4c(c3)OCO4)cc2)c(=O)c2ccccc21)Nc1cccc(Cl)c1,-11.5%,-6.9%
CCOC(=O)C1(C)CCN1C(=O)c1cccc(C#N)c1 (stereo not given),-6.8%,9.7%
O=C(NCCC1=CCCCC1)C1CCCN(S(=O)(=O)c2ccccc2)C1 (stereo not given),?,-30.0%
CCCn1cc(CN2CCC(Cc3cccc(F)c3)(C(=O)OCC)CC2)c(C)n1,21.7%[7.34 µM],23.4%[7.34 µM]
Nn1c(Cc2ccccc2)n[nH]c1=S,-25.2%,-1.1%
CC(=O)COC(=O)C1=NN(c2ccccc2)C(=O)CC1,-20.4%,-11.0%
CCOC(=O)N1CCC(=NNc2ccnc3cc(Cl)ccc23)CC1,-14.4%,20.6%
COc1ccc2c(c1)N(C(=O)CN1C(=O)C3CCCCC3C1=O)C(C)(C)C=C2C (stereo not given),-14.8%,-7.7%
Cc1cc(C)cc(NC(=O)C2CCN(S(=O)(=O)c3cccc4nonc34)CC2)c1,-5.7%,-5.3%
COc1ccc(CN2C(=O)NC(=O)/C(=C/c3ccc([N+](=O)[O-])s3)C2=O)cc1,i,57.6%[activator]
Cc1ccc2c(CN3CCN(c4ccc(Cl)c(Cl)c4)CC3)cc(=O)oc2c1,15.1%,-13.1%
CCCN1CCN(c2ncnc3sc(C(=O)Nc4ccc(OC(F)(F)F)cc4)c(C)c23)CC1,-2.8%,-15.2%
CC1CCN(S(=O)(=O)c2ccc(NC(=O)c3cccs3)cc2)CC1,.,?
COc1ccc(NC(=O)C2CC2(Cl)Cl)cc1S(=O)(=O)N1CCCCC1 (stereo not given),i,-12.1%
CC1(C)CC(=O)C2=C(C1)N(c1ccc(F)cc1)C(=O)CC2c1ccccc1 (stereo not given),-16.6%,-7.4%
COc1ccccc1Nc1nc(N)nc(CN2CCN(c3ccccc3F)CC2)n1,?,-20.1%
CCC1C(=O)NCCN1Cc1ccc2c(c1)CN(Cc1cccc(OC)c1OC)CCO2 (stereo not given),-4.7%,-4.5%
O=S(=O)(c1cccc(NC(=S)NCc2ccco2)c1)N1CCOCC1,-13.9%,-3.7%
Cc1ccc(NC(=O)NCCCN2CCCC2=O)c(C)c1,-14.5%,-13.8%
CC(=O)Oc1ccc(C(=O)Nc2cccnc2)cc1,i,4.4%
c1ccc(Nc2n[nH]nc2-c2ccccc2)cc1,i,3.5%
COc1ccc(-n2c(C)nc3sc4c(c3c2=O)CCC4)cc1,-2.9%,-6.3%
Cc1noc(C)c1CSCC(=O)Oc1ccc(N(C)S(=O)(=O)c2ccccc2)cc1,-12.0%,-2.3%
COc1ccc(C(=O)NCc2cc(C)nc3ccccc23)cc1OC,i,-11.3%
O=C(NNC1CC(=O)N(c2ccccc2)C1=O)c1ccccc1Cl (stereo not given),i,16.2%
CCOC(=O)C1=C(c2ccccc2)NC(SC)=C(C#N)C1c1cccnc1 (stereo not given),i,-0.2%
CCn1c2ccccc2c2cc(NC(C)=O)ccc21,.,?
Cc1ccc(Cl)cc1NC(=O)C(C)n1nnc2sc(-c3ccccc3)cc2c1=O (stereo not given),-13.2%,0.1%
Cc1ccc2c(=O)cc(C(=O)Nc3sc4c(c3C(=O)NCC3CCCO3)CCC4)oc2c1 (stereo not given),-18.9%,-4.3%
Cc1cc(Nc2cccc(Cl)c2)nc2ccc(NC(=O)COc3ccc(Cl)cc3)cc12,-9.3%,-9.9%
Cc1cccc(NC(=S)/N=C(\N)Nc2nc(C)c3ccccc3n2)c1,?,-20.3%

Three entries drawn at random from those above, as already listed:
molecule,Vaccinia mCherry,VACV Venus inh
CCn1c2ccccc2c2cc(NC(C)=O)ccc21,.,?
COc1ccc(C(=O)NCc2cc(C)nc3ccccc23)cc1OC,i,-11.3%
O=C(NNC1CC(=O)N(c2ccccc2)C1=O)c1ccccc1Cl (stereo not given),i,16.2%

The main list resumes with the 2 entries that preceded the break.
molecule,Vaccinia mCherry,VACV Venus inh
Cc1cc(Nc2cccc(Cl)c2)nc2ccc(NC(=O)COc3ccc(Cl)cc3)cc12,-9.3%,-9.9%
Cc1cccc(NC(=S)/N=C(\N)Nc2nc(C)c3ccccc3n2)c1,?,-20.3%
O=C(NCCCN1CCOCC1)c1ccc2c(c1)N(Cc1c(F)cccc1Cl)C(=O)CS2,?,-16.3%
COc1ccc(C)cc1S(=O)(=O)N(C)CC(=O)Nc1ccc2c(c1)OCO2,-4.9%,-8.8%
O=C(NNC(=O)c1cc(S(=O)(=O)N2CCOCC2)ccc1Cl)c1ccc(F)cc1,i,-2.9%
Cc1ccc(C(=O)CSc2nc3ccccc3c(=O)n2N)o1,-11.9%,-5.9%
CC(C)c1cc(-c2n[nH]c(=S)n2Cc2ccccc2)cs1,-5.0%,-18.2%
CCC(Sc1ccccc1)C(=O)OC1CC2CCC(C1)N2C (stereo not given),-1.8%,-11.4%
O=C(N/N=C/c1sc(N2CCOCC2)nc1-c1ccccc1)c1ccccc1F,-27.3%,-15.0%
CC(C)(C)Nc1nc(-c2ccccn2)nc2ccccc12,-28.3%,?
Cc1ccc(S(=O)(=O)Cc2ccc(C(=O)N3CCCCCC3)o2)cc1,0.8%,-13.6%
CCOc1ccc(N2C(=O)c3ccccc3C2O)cc1 (stereo not given),i,-8.9%
CCCn1nnc(NC(=O)c2cc3ccccc3o2)n1,i,-5.4%
CCOC(=O)C1(Cc2cccc(Cl)c2)CCCN(C(=O)c2ccoc2C)C1 (stereo not given),i,-7.7%
O=C(NCc1cccs1)c1ccc(Cl)s1,-16.7%,-13.4%
O=C(CN1C(=O)CC(c2ccco2)Sc2ccccc21)Nc1ccc2c(c1)OCCO2 (stereo not given),i,-8.3%
COc1cccc(C(=O)Nc2cc(-c3cn4cccnc4n3)ccc2C)c1OC,-12.4%,-4.7%
CCCCc1nc(N2CCOCC2)c(C#N)c2c1CCCC2,-15.9%,-11.2%

Some values from the list:
Reading of Cc1cc(C)cc(NC(=O)C2CCN(S(=O)(=O)c3cccc4nonc34)CC2)c1 under VACV Venus inh: -5.3%
Reading of O=C(CSc1nnc2scc(-c3ccccc3)n12)NCc1ccco1 under VACV Venus inh: -10.1%

Next section:
molecule,Vaccinia mCherry,VACV Venus inh
CC(C)C1=C2OC(N)=C(C#N)C(C#N)=C2C(C)CC1 (stereo not given),-11.9%,1.9%
Oc1ccc2ccccc2c1Br,i,-12.1%
CN1C(=O)C(Cl)(Cl)C(=O)c2ccccc21,-8.2%,-6.8%
COc1ccc(Cc2c(C3CCCCC3)nc3ccc(Cl)cn23)c(C)c1,0.7%,7.5%
COC(=O)c1ccc2[nH]c(CO)c(-c3ccccc3)c2c1,i,?
COc1cccc(NC(=O)N2CCC3(CC2)OCCO3)c1,-6.0%,7.8%
CCC1S/C(=C(\C#N)C(=O)NCc2ccco2)N(c2ccc(Br)cc2)C1=O (stereo not given),.,2.1%
CC(C)c1ccc(OCCCCN2CCCCC2)cc1,i,-3.3%

4 of the compounds above, field by field:
mol: CC(=O)COC(=O)C1=NN(c2ccccc2)C(=O)CC1
- Vaccinia mCherry: -20.4%
- VACV Venus inh: -11.0%
mol: CCOC(=O)N1CCC(=NNc2ccnc3cc(Cl)ccc23)CC1
- Vaccinia mCherry: -14.4%
- VACV Venus inh: 20.6%
mol: COc1ccc2c(c1)N(C(=O)CN1C(=O)C3CCCCC3C1=O)C(C)(C)C=C2C (stereo not given)
- Vaccinia mCherry: -14.8%
- VACV Venus inh: -7.7%
mol: Cc1cc(C)cc(NC(=O)C2CCN(S(=O)(=O)c3cccc4nonc34)CC2)c1
- Vaccinia mCherry: -5.7%
- VACV Venus inh: -5.3%

Further records
molecule,Vaccinia mCherry,VACV Venus inh
CCOC(=O)c1sc(=S)n(CC)c1NC(=O)c1ccccc1,-6.1%,1.5%
CC(C)c1ccc(CN2CCC(C(=O)NCc3cccnc3)CC2)cc1,-11.2%,-4.8%
O=C(O)C1CCN(S(=O)(=O)c2ccc(N3CCC(O)CC3)c([N+](=O)[O-])c2)CC1,i,-8.3%
N#C/C(C(=O)Nc1ccc(Cl)cc1)=C(/S)Nc1ccccc1,?,-21.5%
CCOc1cc(/C=N/N2CCOCC2)ccc1OCc1ccc(C(=O)OC)o1,-17.7%,-19.9%
CC(=O)c1ccc(OC2(C)CCN(Cc3ccccc3OC(F)F)C2)cc1 (stereo not given),-10.9%,-0.1%
CC(C)CCC(=O)Nc1cc(S(=O)(=O)N2CCOCC2)ccc1N1CCCC1,-1.3%,-13.3%
O=C(NCCCC1CCCC1)C1CCC(=O)N(Cc2cccc(F)c2)C1 (stereo not given),-26.9%,-9.1%
O=C(c1ccc(Br)o1)N1CCCc2ccccc21,-18.8%,-8.7%
O=C1COc2ccc(C(=O)COC(=O)c3cc(S(=O)(=O)N4CCOCC4)ccc3F)cc2N1,i,-14.2%
CCOC(=O)N1CCC(NC(=O)c2sc(-n3cccc3)nc2C)CC1,.,-11.4%
Cc1ccc(NC(=O)CN(C)Cc2nc3c(Br)cc(Br)cc3c(=O)[nH]2)cc1,0.3%,10.1%
CCNC(=S)Nc1scc(-c2ccccc2)c1C(=O)OCC,i,-12.3%
CC(C)Oc1ccc(C2(C#N)CC[N+](C)(C)CC2)cc1,-14.0%,-1.6%
COc1ccc(C2(C)NC(=O)N(CC(=O)c3ccc4c(c3)OCO4)C2=O)cc1 (stereo not given),i,-14.1%
Cc1ccc(NC(=O)CC(=O)Nc2ccc(C)cc2C)c(C)c1,i,-6.1%
Cc1nnc(SCC(=O)Nc2sccc2C(N)=O)n1Cc1ccccc1,-12.4%,-9.9%
CC(=O)Nc1ccc(S(=O)(=O)Nc2cc(C)c(-n3nc4ccccc4n3)cc2O)cc1,-4.2%,-16.3%
